Screening data: PubChem BioAssay, National Center for Advancing Translational Sciences (NCATS)
D2 PAM: positive allosteric modulators of human D2 dopamine receptor; DiscoveRx D2 beta-arrestin cells, luminescence, 90 min; 100% = 57 uM dopamine signal; potentiation, % (no concentration beside the values); actives 0.23% (n = 360,000); active = potentiation of 50% or more; inconclusive = 30% to 50%; inactive = 30% or less;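 also: compound concentration not given in the record; tested on top of an EC20 dose of dopamine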
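PathHunter beta-arrestin assay in DiscoveRx D2 cells. Compounds were added with an EC20 of dopamine (50 nM final) for 90 min at 37 deg C. Luminescence was read 1 h after detection reagent, with 57 uM dopamine as the EC100 control.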
gsp antag: antagonizes gsp, the McCune-Albright syndrome mutation | gsp-mutant cells, cAMP HTRF, 30 min; control for the full effect not named in the record | Potency, µM (doses to about 76.9 µM), for the others: at the top dose activity change, negative = inhibition, hits mostly inhibitors | actives 0.4% (n = 340,000); active = falling curve of any shape with a large fitted effect; inconclusive = falling curve, mostly with a smaller effect; inactive = flat or rising curve; cell line not stated here;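 also: intracellular cAMP measured with PDE inhibitor Ro 20-1724 present during compound exposure; potency is read from the fitted curve at half-maximal effect; % is scaled to controls: 0 for no effect and ±100 for the full control effect; nearly all actives have a fitted effect of over 65% in size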
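HTRF cAMP measurement after 30 min RT detection following 30 min, 37C compound treatment alongside […] (added as 300 uM solution) in G418-selected cells seeded at 2000/well and grown 16–24 h.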
CtBP-E1A inh: CtBP/E1A binding inhibition. AlphaScreen GST-E1A/His-CtBP binding, 1536-well; hits give low values; control for the full effect not named in the record. activity change, % (no concentration beside the values). actives 0.49% (n = 340,000); in the data active means activity change below about -65%; inconclusive means about -30% to -65%; inactive means above about -30%; also: % is scaled to controls: 0 for no effect and ±100 for the full control effect; compound concentration not given in the record
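Steps: dispense buffer (Tris pH 8.0, NaCl 300 mM, TCEP 1 mM, BSA, Tween 20); add 5X protein mix (GST-E1A, His-CtBP, 125 nM each); pin 23 nL compound; 2 h at 37 °C, dark; add 5X beads (50 ug/mL); 1 h; read.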
Six1-Eya2 inh: Six1/Eya2 interaction inhibition; Q15475+O00167; AlphaScreen GST-Six1/His-Eya2 binding, biochemical; hits give low values; control for the full effect not named in the record; activity change, % (no concentration beside the values); actives 0.56% (n = 360,000); in the data active = activity change below about -65%; inconclusive = about -30% to -65%; inactive = above about -30%; also: % is scaled to controls: 0 for no effect and ±100 for the full control effect; compound concentration not given in the record
Target sequence (O00167 whole entry, looked up): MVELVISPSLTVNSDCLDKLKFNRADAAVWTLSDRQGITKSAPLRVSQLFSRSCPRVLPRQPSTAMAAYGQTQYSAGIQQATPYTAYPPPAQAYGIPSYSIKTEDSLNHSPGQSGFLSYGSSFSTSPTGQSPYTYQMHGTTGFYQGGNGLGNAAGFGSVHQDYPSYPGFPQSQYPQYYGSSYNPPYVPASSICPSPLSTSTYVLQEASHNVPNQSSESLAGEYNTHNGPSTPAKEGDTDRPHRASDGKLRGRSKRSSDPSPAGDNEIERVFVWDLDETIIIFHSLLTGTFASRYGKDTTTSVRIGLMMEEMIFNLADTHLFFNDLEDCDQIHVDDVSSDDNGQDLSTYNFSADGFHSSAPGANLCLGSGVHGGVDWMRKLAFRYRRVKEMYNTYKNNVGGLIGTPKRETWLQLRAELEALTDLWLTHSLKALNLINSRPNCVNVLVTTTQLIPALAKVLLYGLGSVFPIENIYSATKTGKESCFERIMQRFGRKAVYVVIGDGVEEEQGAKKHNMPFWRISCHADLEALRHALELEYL
Target sequence (Q15475 whole entry, looked up): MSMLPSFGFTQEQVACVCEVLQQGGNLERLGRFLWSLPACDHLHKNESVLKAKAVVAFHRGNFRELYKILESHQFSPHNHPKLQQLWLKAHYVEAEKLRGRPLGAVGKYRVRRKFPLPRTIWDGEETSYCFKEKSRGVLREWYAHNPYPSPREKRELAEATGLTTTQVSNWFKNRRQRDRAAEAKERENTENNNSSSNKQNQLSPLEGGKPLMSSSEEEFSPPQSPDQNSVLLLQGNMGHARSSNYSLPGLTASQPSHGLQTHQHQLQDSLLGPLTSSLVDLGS
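Compounds are tested against tagged Six1 and Eya2 proteins bridged by glutathione donor and nickel acceptor beads; after a one-hour incubation at 37 °C without light, AlphaScreen emission is recorded.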
D2 agonist: activates the human D2 dopamine receptor; P14416; DiscoveRx PathHunter D2 beta-arrestin, luminescence, 90 min; 100% = 57 uM dopamine signal; activation, % (no concentration beside the values); actives 0.084% (n = 360,000); AID 624465; in the data active = activation above about 40%; inconclusive = about 15% to 40%; inactive = below about 15%; also: compound concentration not given in the record; the text of the record calls up to 30% inactive
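Agonist mode: compounds alone added to overnight-plated D2 PathHunter cells for 90 min at 37 C, with 57 uM final dopamine (EC100) defining full response. Beta-arrestin recruitment detected by chemiluminescent reagent, read after 1 h at ambient temperature.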
gsp agonist: activates gsp, the McCune-Albright syndrome mutation. gsp mutant cells, cAMP HTRF, 30 min; control for the full effect not named in the record. Potency, µM (doses to about 76.9 µM), for the others: top-dose activation (cAMP increase), hits mostly activators. actives 0.13% (n = 340,000); active = well fitted activation curve with a large enough effect; inconclusive = small, poorly fitted or top-dose-only effect, or another doubt; inactive = no such curve, though single readings can be large or run the other way; cell line not stated here;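 also: phosphodiesterase inhibitor Ro 20-1724 added with compounds to block cAMP breakdown; potency is read from the fitted curve at half-maximal effect; nearly all actives have a fitted effect of over 60% in size; about a fifth of the inactives were tested at one dose only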
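Cells in DMEM/10% FBS with G418 were pretreated with compounds in DMSO plus […] (300 uM stock) for 30 min at 37C. cAMP was measured by HTRF (cAMP-d2 plus anti-cAMP antibody-K) after 30 min at room temperature.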
Starred values were filed as active, the others as inactive; u = inconclusive; x = not tested or not shown; [ ] = dose if it differs, or a comment.

SMILES	D2 PAM	gsp antag	CtBP-E1A inh	Six1-Eya2 inh	D2 agonist	gsp agonist
Cc1ccc(NC(=O)CSc2nnc(C3CC3)n2N)cc1S(=O)(=O)N1CCOCC1	-4.6	10.1%	-5.9	-3.8	-4.5	-8.0%[15.4 µM]
CCN(CC)CCNC(=O)c1sc2nc(-c3ccccc3)cn2c1C	-14.5	5.3%	-5.9	-5.1	-4.4	4.2%
CCc1cccc(C)c1NC(=O)CSc1nc2ccncc2[nH]1	-3.6	2.3%	10.3	2.3	1.5	55.8%
COc1ccc(C(=O)ON=C2CCN(C)CC2)cc1	-8.2	8.5%	11.9	12.0	-2.7	7.6%[15.4 µM]
Clc1ccc2[nH]c3c(c2c1)CNCC3	-14.5	11.9%	-5.9	-16.8	-5.7	8.1%[15.4 µM]
CN(C)CCNC(=O)C1(O)c2cc(Br)ccc2NC(=O)N1c1ccc(Cl)cc1 (centres undefined)	-2.7	1.2%	9.6	29.9	-2.7	1.7%
Cc1c(OCC(=O)NCCN2CCOCC2)ccc2c1oc(=O)c1ccccc12	4.2	-18.7%	2.4	-0.1	1.8	u
CCOc1ccc(-c2ccc(SCC(=O)Nc3nnc(C)s3)nn2)cc1	1.3	1.8%	-1.7	-0.3	-0.8	-5.6%[15.4 µM]
CCOC(=O)c1[nH]c2ccc(F)cc2c1NC(=O)C(C)N1CCc2cc(OC)c(OC)cc2C1 (centres undefined)	-17.2	-20.3%	-14.6	-12.7	-0.7	-79.8%[inhibitor]
CC(=O)Nc1ccc(S(=O)(=O)N(CCc2ccccc2)CC(=O)N/N=C/c2ccc(C(=O)O)cc2)cc1	-4.5	-5.1%	x	-8.3	-6.5	-18.8%
CN1CCN(C(=O)CN(c2cccc(Cl)c2)S(=O)(=O)c2ccccc2)CC1	-10.2	2.3%	8.0	15.9	-2.4	u
C/C=C/Cn1c(N(C)Cc2ccccc2)nc2c1c(=O)[nH]c(=O)n2C	-2.0	3.4%	0.2	-9.9	-2.2	23.1%
Cc1ccc(N)c(C(=O)CCCCC(=O)O)c1	1.4	-6.2%	1.3	4.1	-0.3	5.8%
NS(=O)(=O)c1ccc(NC(=O)CN2CCCC2)cc1	-0.8	-3.7%	1.2	13.2	0.8	-20.7%
O=C(CCNS(=O)(=O)c1cccs1)N1CCN(c2cccc(Cl)c2)CC1	-1.4	-48.0%	2.6	-5.6	1.0	18.3%[15.4 µM]
Cc1cccc(Nc2sc(C(=O)c3cc4cc(Cl)ccc4o3)c(N)c2C#N)c1	1.4	-4.3%	x	-1.2	-9.6	-0.2%
O=C(OCc1ccccc1)c1cn(-c2ccccc2)nc1-c1ccncc1	1.7	1.0%	-3.8	8.5	2.2	-2.9%
COc1ccc([N+](=O)[O-])cc1/C=N/NC(=O)c1nonc1N	-7.8	-9.0%	-2.1	4.3	-3.4	11.5%[15.4 µM]
CCN(c1ccccc1)S(=O)(=O)c1ccc(Cl)c(C(=O)O)c1	1.4	10.1%	7.4	4.2	-1.8	-16.1%
COc1ccc(N2c3ccccc3CN(Cc3ccccc3)CC2Cc2cc(OC)c(OC)c(OC)c2)cc1 (centres undefined)	1.5	x	-26.8	u	-8.2	29.8%
Cc1ccc(S(=O)(=O)N2CCN(C3CC(=O)N(CCc4ccccc4)C3=O)CC2)cc1C (centres undefined)	-3.7	-16.0%	0.8	-2.7	0.4	20.3%
COc1ccc(C(=O)/C=C/c2cccnc2)c(OC)c1	-3.6	-12.8%	x	1.2	0.6	-23.3%
Cc1cc2oc(=O)cc(CN(C)Cc3cccc(F)c3)c2cc1Cl	3.0	1.0%	27.3	11.8	1.2	-0.9%
O=C(CSc1nc2ncc(Cl)cc2[nH]1)Nc1ccccc1-c1ccccc1	-9.2	-18.0%	-4.8	0.4	-0.1	44.0%
COc1cc(-c2nc(S(=O)(=O)c3ccc(Cl)cc3)c(N(C)C)o2)cc(OC)c1OC	-15.5	-6.2%	0.7	-0.6	-2.5	u
CCCCCCCCn1c(=O)c(C(=O)OCC)c(O)c2ccccc21	-4.9	-3.6%	7.2	-8.6	1.4	u
CC(=O)CC(c1ccc([N+](=O)[O-])cc1)c1c(O)c2ccccc2oc1=O (centres undefined)	-10.6	u	15.5	-1.7	-4.8	x
CCOc1ccc(N2C(=O)Nc3ccc(Br)cc3C2(O)C(=O)NCCN(C)C)cc1 (centres undefined)	-11.2	20.7%	2.1	0.8	-2.7	3.8%[15.4 µM]
Cc1nn(-c2ccccc2)c(N)c1C(c1ccc(C(C)C)cc1)c1c(C)nn(-c2ccccc2)c1N	2.1	-0.7%	-3.5	-7.1	-6.9	8.2%
COc1ccccc1NC(=O)Nc1nc(CC(=O)Nc2cc(F)ccc2F)cs1	56.2*	-7.9%	-6.6	u	-2.2	-8.0%
O=C(NCc1ccccc1Cl)c1ccc2sc([C@@H]3O[C@H](CO)[C@H](O)[C@H](O)[C@H]3O)nc2c1	-14.6	x	6.7	3.2	-10.0	x
CCOc1ccc(CCNC(=O)c2ccc3nc(N4CCOCC4)sc3c2)cc1OCC	-4.0	7.3%	7.2	-1.2	-0.4	-3.0%[15.4 µM]
CCOC(=O)C1=CCC(c2ccc(C#N)cc2)N(S(=O)(=O)c2ccc(C)cc2)C1 (centres undefined)	-2.1	x	3.3	-6.4	-5.1	x
COC(=O)c1oc2c(c1C)C(=O)CC(C)(C)C2	-3.9	9.3%	x	10.3	2.6	5.4%[15.4 µM]
O=S(=O)(/C=C/c1ccccc1)NC1CCCCCC1	-6.1	-13.3%	x	4.5	0.0	-11.0%[15.4 µM]
O=C(CC1Oc2ccccc2NC1=O)NC1CCCC1 (centres undefined)	-8.4	2.5%	0.3	-5.1	-5.3	-0.2%
COc1ccc(/C=C/C(=O)OCC(=O)NCCc2ccccc2)c(OC)c1	-4.1	-12.8%	-4.5	1.5	0.8	30.4%
CS(=O)(=O)c1nc(-c2ccccc2)c(-c2ccccc2)[nH]1	-23.3	-3.1%	-0.7	-2.2	-2.9	-1.0%
O=C(NCc1ccccc1F)Nc1ccc([N+](=O)[O-])cc1	-14.2	3.4%	3.4	-6.6	-13.7	-8.7%[15.4 µM]
COc1ccc2cc(C(=O)NCCc3ccccc3)[nH]c2c1	2.1	0.7%	-1.3	3.2	1.1	13.5%
CCOC1=NS(=O)(=O)c2ccccc21	3.3	18.8%	5.9	6.7	2.7	18.7%
COc1ccccc1NC(=O)c1ccccc1NS(C)(=O)=O	-5.4	-6.5%	-1.2	-1.6	-2.6	-6.7%
O=C(O)C1CCCN1S(=O)(=O)c1cccc(S(=O)(=O)N2CCCC2C(=O)O)c1 (centres undefined)	-12.2	4.0%	6.0	-3.2	-3.6	8.8%
Cc1nc(SCC(=O)c2cc(C)n(C3CC3)c2C)c2ccccc2n1	0.8	x	12.5	-1.5	-1.3	-101.7%[inhibitor]
COc1cccc(OC)c1C(=O)Nc1ccc([N+](=O)[O-])cn1	3.2	-7.1%	0.1	9.5	-1.9	-8.0%
Cc1cc(=O)[nH]c(SCc2cccc(F)c2)n1	-21.7	-10.5%	-2.6	-0.5	-3.5	0.0%
Cc1ccccc1OC(C)C(=O)N1CCC(Cc2ccccc2)CC1 (centres undefined)	-11.3	-27.9%	6.8	9.0	-3.7	-0.2%
NS(=O)(=O)c1ccc(NC(=O)COC(=O)c2cnc(Cl)c(Cl)c2)cc1	-2.2	-1.2%	-15.6	-5.3	3.4	3.6%[15.4 µM]
O=C(CN(CCc1ccccc1)C(=O)CNS(=O)(=O)c1ccccc1)NCc1ccco1	-16.7	-1.6%	-2.9	-9.0	-3.3	11.5%
O=C(CSc1ncn[nH]1)N1CCOCC1	-3.1	10.1%	x	-1.9	-5.5	-12.7%
CC(=O)c1cccc(NC(=O)COC(=O)CC2CC3CCC2C3)c1 (centres undefined)	-16.6	9.6%	-0.8	1.1	-4.3	22.4%
Cc1cc(Cl)ccc1NC(=S)NCC(C)C	-17.7	3.5%	3.0	9.2	-1.1	10.8%
O=C(O)C(Cc1ccccc1)N1C(=O)C2CCCCC2C1=O (centres undefined)	-3.6	1.8%	-8.4	16.3	-4.3	u
COC(=O)[C@H](CC(C)C)NS(=O)(=O)N(Cc1ccccc1)[C@@H](CC(C)C)C(=O)OC	-0.8	-11.6%	9.0	-3.5	-2.9	-1.1%
Cc1cc(=O)[nH]c(SCC(=O)NN(c2ccccc2)c2ccccc2)n1	4.6	-7.3%	3.9	3.6	0.1	18.2%
COc1ccc(C(C(=O)NCC2CCCO2)N(C(=O)CNC(=O)c2ccco2)c2ccc(C)c(C)c2)cc1OC (centres undefined)	-6.3	1.7%	23.8	0.6	-3.0	-0.7%[15.4 µM]
COc1ccccc1CCNC(=O)CSc1ccc(-c2cccs2)nn1	-4.5	-10.3%	3.6	-3.8	-1.4	3.9%[15.4 µM]
COc1ccc(-c2cc(C(=O)N/N=C/c3ccc4c(c3)OCO4)c3ccccc3n2)c(OC)c1	-18.4	-3.6%	u	u	1.0	2.0%
CCCn1c(SCC(=O)N2CCc3ccccc32)nnc1-c1ccco1	-8.1	7.9%	1.9	-1.6	-2.7	-0.5%
COc1ccccc1CNC(=O)COC(=O)CCN=C1NS(=O)(=O)c2ccccc21	5.3	1.5%	10.8	0.5	6.1	-36.2%[inhibitor]

Four records picked at random from those above, as already listed:
SMILES	D2 PAM	gsp antag	CtBP-E1A inh	Six1-Eya2 inh	D2 agonist	gsp agonist
CCOC(=O)c1[nH]c2ccc(F)cc2c1NC(=O)C(C)N1CCc2cc(OC)c(OC)cc2C1 (centres undefined)	-17.2	-20.3%	-14.6	-12.7	-0.7	-79.8%[inhibitor]
CCOC(=O)C1=CCC(c2ccc(C#N)cc2)N(S(=O)(=O)c2ccc(C)cc2)C1 (centres undefined)	-2.1	x	3.3	-6.4	-5.1	x
Cc1cc(Cl)ccc1NC(=S)NCC(C)C	-17.7	3.5%	3.0	9.2	-1.1	10.8%
CS(=O)(=O)c1nc(-c2ccccc2)c(-c2ccccc2)[nH]1	-23.3	-3.1%	-0.7	-2.2	-2.9	-1.0%

(continued)
SMILES	D2 PAM	gsp antag	CtBP-E1A inh	Six1-Eya2 inh	D2 agonist	gsp agonist
CCOc1ccc2nc(NC(=O)CSc3nc(-c4ccccc4)c(C#N)c(=O)[nH]3)sc2c1	-2.0	-8.7%	-6.3	-8.2	-3.9	7.4%[15.4 µM]
CN(C(=O)c1cccc(NC(=O)Cc2cccc(NC(=O)C3CCN(C(=O)C4CCC4)CC3)c2)c1)C1CC1	x	9.3%	5.8	-5.2	0.0	x
Cc1onc(-c2ccccc2)c1C(=O)Nc1nc(-c2ccccc2)cs1	-11.1	2.0%[15.4 µM]	-7.5	-0.3	-0.6	16.0%
CCN(CC)C(=O)c1ccc(CS(=O)(=O)c2ccc(Br)cc2)cc1	-7.3	-3.9%	-4.1	-13.1	3.9	10.9%[15.4 µM]
CCCCc1nc(NCCN2CCOCC2)c(C#N)c2c1COC(C)(C)C2	-15.1	20.3%	0.0	19.9	-7.0	-2.5%
